Pol kappa inh: inhibitors of human DNA polymerase kappa; AID 588579; purified Pol kappa, fluorescent DNA synthesis assay, 10 min; actives 0.53% (n = 400,000); Potency, µM (titrated, usually from 107 µM), inactives show at the top dose activity, negative = inhibition, most hits filed as inhibitors; also: % is scaled to controls: 0 for no effect and ±100 for the full control effect
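Enzyme at 10 nM met test compounds for 15 min at room temperature. Substrate addition (50 nM final) began the reaction, which was monitored by fluorescence at 0 and 10 min.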
BLM inh: Bloom syndrome helicase (human) inhibition; Potency, µM (series often up to 56.1 µM), for inactives: at the top dose activity change, negative = inhibition, hits mostly inhibitors; recombinant BLM DNA unwinding, fluorescence dequenching; AID 2528; actives 0.2% (n = 350,000); P54132;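 also: plate controls were vehicle for no effect and no enzyme for full effect; nearly all actives have a fitted effect of over 35% in size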
POLI inh: DNA polymerase iota (human) inhibition | Pol iota fluorescent replication assay, 10 min | actives 1% (n = 390,000) | Potency, µM (top dose mostly 115 µM), without a hit: top-dose activity, negative = inhibition, most hits filed as inhibitors | AID 588590 | Q9UNA4
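Fluorescent replication assay read twice, at 0 min and 10 min after adding 50 nM (final) substrate. Enzyme (10 nM) and compounds were first incubated 15 min at room temperature; enzyme-free buffer wells were negative controls.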
JMJD2A Tudor: inhibitors of human JMJD2A Tudor domain. AID 504339. actives 4.4% (n = 390,000). AlphaScreen JMJD2A-Tudor / H3K4me3 peptide binding. O75164. Potency, µM (titrated, usually from 114 µM), for inactives: at the top dose activity change, negative = inhibition, hits mostly inhibitors; also: % is scaled to controls: 0 for no effect and ±100 for the full control effect; nearly all actives have a fitted effect of over 50% in size
G9a inh: G9a (human) methyltransferase inhibition; AID 504332; actives 8.8% (n = 350,000); G9a H3K9 monomethylation, AlphaScreen, 2 h; Potency, µM (top dose mostly 102 µM), inactives show at the top dose activity, negative = inhibition, usual class: inhibitors; Q96KQ7; also: % is scaled to controls: 0 for no effect and ±100 for the full control effect; nearly all actives have a fitted effect of over 75% in size
Target sequence (Q96KQ7 913-1193 limits assumed): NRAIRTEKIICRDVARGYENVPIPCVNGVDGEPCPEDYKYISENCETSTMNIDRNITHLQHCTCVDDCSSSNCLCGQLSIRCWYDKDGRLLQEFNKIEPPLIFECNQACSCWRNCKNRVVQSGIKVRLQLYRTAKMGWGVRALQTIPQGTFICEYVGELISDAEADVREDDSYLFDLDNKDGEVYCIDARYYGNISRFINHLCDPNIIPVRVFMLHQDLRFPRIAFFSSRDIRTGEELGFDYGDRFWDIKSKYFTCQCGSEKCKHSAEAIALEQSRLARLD
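Methyltransferase reactions run at room temperature for 2 h (20 nM enzyme, 500 nM biotin-H3K9 peptide, 20 uM SAM) after a 15 min compound preincubation; product detected by AlphaScreen beads and anti-H3K9me1 antibody.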
Active calls of the source: *; u = inconclusive; x = not tested or not shown; [ ] = another dose, or the depositor's remark. Calls follow the shape of the dose curve; as a rule, active = well fitted curve in the direction sought with a large enough effect; inconclusive = small, poorly fitted or top-dose-only effect, or another doubt; inactive = no such curve, though single readings can be large; an effect the other way counts as inactive or inconclusive. Potency is read from the fitted curve at half-maximal effect.

Pol kappa inh	BLM inh	POLI inh	JMJD2A Tudor	G9a inh	smiles
5%	0%	-6%	-18%	9%[12.7 µM]	COc1ccc(C2(C(=O)NCc3ccco3)CCCC2)cc1OC
x	1%	x	x	x	CCCCC1=CC2=C(OC(C)=O)C(=O)C(C)(OC(=O)c3ccco3)C(=O)C2=CO1 (stereo not given)
-14%	-2%	-4%	-23%	u	O=C(CCSc1ccccc1)Nc1nc2c(s1)COc1ccccc1-2
-44%	-23%	25µM*	56µM*	u	Cc1ccc(S(=O)(=O)N2CCCC2C(=O)OCc2ccco2)cc1 (stereo not given)
-2%[60.1 µM]	-10%	u	u	-24%[12.7 µM]	O=C(/C=C/c1ccco1)Nc1ccc(F)cc1
6%[60.1 µM]	-2%	x	x	u	CNc1ncncc1-c1ccccc1C(F)(F)F
-17%	-5%	52%[activator]	-2%	-10%[12.7 µM]	Cc1ccc(COc2ccsc2C(=O)O)cc1
-10%[60.1 µM]	-9%	x	x	-10%[12.7 µM]	COc1ncc2nc(-c3cc(F)cc(F)c3)c(=O)n(Cc3cccs3)c2n1
-2%	0%	23%	0%	4%[59 µM]	CC(C)(C)c1cc(NC(=O)C2CCCO2)no1 (stereo not given)
-3%[12 µM]	1%	x	x	-43%[12.7 µM]	CO/N=C(\C(=O)N[C@@H]1C(=O)N2C(C(=O)[O-])=C(C[N+]3(C)CCCC3)CS[C@@H]12)c1csc(N)n1

Ordered by the number under JMJD2A Tudor (lowest first): some entries from above
Structure,Pol kappa inh,BLM inh,POLI inh,JMJD2A Tudor,G9a inh
O=C(CCSc1ccccc1)Nc1nc2c(s1)COc1ccccc1-2,-14%,-2%,-4%,-23%,u
COc1ccc(C2(C(=O)NCc3ccco3)CCCC2)cc1OC,5%,0%,-6%,-18%,9%[12.7 µM]
Cc1ccc(COc2ccsc2C(=O)O)cc1,-17%,-5%,52%[activator],-2%,-10%[12.7 µM]
CC(C)(C)c1cc(NC(=O)C2CCCO2)no1 (stereo not given),-2%,0%,23%,0%,4%[59 µM]

A different layout for 3 compounds above:
CC(C)(C)c1cc(NC(=O)C2CCCO2)no1 (stereo not given)
  Pol kappa inh: -2% | BLM inh: 0% | POLI inh: 23% | JMJD2A Tudor: 0% | G9a inh: 4%[59 µM]

CO/N=C(\C(=O)N[C@@H]1C(=O)N2C(C(=O)[O-])=C(C[N+]3(C)CCCC3)CS[C@@H]12)c1csc(N)n1
  Pol kappa inh: -3%[12 µM] | BLM inh: 1% | POLI inh: x | JMJD2A Tudor: x | G9a inh: -43%[12.7 µM]

O=C(/C=C/c1ccco1)Nc1ccc(F)cc1
  Pol kappa inh: -2%[60.1 µM] | BLM inh: -10% | POLI inh: u | JMJD2A Tudor: u | G9a inh: -24%[12.7 µM]

Additional records follow:
Pol kappa inh	BLM inh	POLI inh	JMJD2A Tudor	G9a inh	smiles
4%	x	-1%	8%	-15%[12.7 µM]	CC(OC(=O)CCNS(=O)(=O)c1cccs1)C(=O)Nc1ccc(S(N)(=O)=O)cc1 (stereo not given)
-12%	-3%	98%[activator]	2%[11.4 µM]	11%	Cc1ccc2c(C)c(C(=O)NCc3ccc(S(N)(=O)=O)cc3)oc2c1
3%	-1%	2%	-6%	6%	C[C@]12CC[C@@H]3c4ccc(O)cc4CC[C@H]3[C@@H]1C[C@@H](O)[C@@H]2O
-22%	-26%	7.1µM*	u	45µM*	CCOc1cc(/C=C(\C#N)C(=O)Nc2cccc(C(=O)O)c2)ccc1OCc1ccc(Br)cc1
-10%	-12%	10%	-20%	0%	Cc1ccc(CNC(=O)c2cc(=O)c3ccc(C)cc3o2)cc1
-18%	-3%	8%	-6%	32%[59 µM]	CCc1ccc2oc(C(=O)Nc3ccc(S(N)(=O)=O)cc3)c(C)c2c1
1%	2%	23%	-9%	-1%[0.501 µM]	c1ccc2ccccc2c1
-5%	-1%	10%	-11%	-7%	COc1ccccc1OCCC(=O)OCC(=O)Nc1cc(S(=O)(=O)N(C)C)ccc1Cl
-6%	-4%	11%	-7%	-7%	COc1ccc(Cl)cc1NC(=O)NCc1ccco1
-3%	-7%	-12%	u	0%[12.7 µM]	O=C(NCc1ccco1)c1ccccc1Nc1ccc(F)cc1
3%	2%	26%	-12%	-5%	COc1ccc(NC(=O)CCS(=O)(=O)c2cc3c(cc2C)NC(=O)CO3)cc1
3%	-5%	24%	-7%	17%	CCOc1ccc(NC(=O)NCc2ccco2)cc1
-17%	x	24%	-8%	20%	CCOc1ccc(CCNC(=O)Cc2ccc(S(=O)(=O)N3CCOCC3)s2)cc1OCC
9%	-6%	36%[activator]	-16%	18%	COc1cc([N+](=O)[O-])ccc1NC(=O)NCc1ccccn1
-21%	-3%	u	-23%	50%	Cc1ccc(C)c(OCC(=O)Nc2cccc(S(=O)(=O)NC3=NCCCCC3)c2)c1

Structures listed above that bear a hit mark in POLI inh.
Pol kappa inh	BLM inh	POLI inh	JMJD2A Tudor	G9a inh	smiles
-44%	-23%	25µM*	56µM*	u	Cc1ccc(S(=O)(=O)N2CCCC2C(=O)OCc2ccco2)cc1 (stereo not given)
-22%	-26%	7.1µM*	u	45µM*	CCOc1cc(/C=C(\C#N)C(=O)Nc2cccc(C(=O)O)c2)ccc1OCc1ccc(Br)cc1

Look-ups from above.
G9a inh result of CCOc1ccc(CCNC(=O)Cc2ccc(S(=O)(=O)N3CCOCC3)s2)cc1OCC reads 20%
G9a inh result of Cc1ccc(C)c(OCC(=O)Nc2cccc(S(=O)(=O)NC3=NCCCCC3)c2)c1 reads 50%
JMJD2A Tudor result of COc1ccc(NC(=O)CCS(=O)(=O)c2cc3c(cc2C)NC(=O)CO3)cc1 reads -12%
Pol kappa inh result of CCOc1ccc(NC(=O)NCc2ccco2)cc1 reads 3%
G9a inh result of COc1cc([N+](=O)[O-])ccc1NC(=O)NCc1ccccn1 reads 18%

These rows are one share of the data, so the mix of outcomes need not match the whole.
